rRNA inh HTS – inhibits bacterial ribosomal RNA function over humanized ribosomes. E. coli WT GFP vs humanized-ribosome RFP mutants, fluorescence, 24 h; hits give low values; DMSO median 0, no signal -100. AID 720706. 350,000 tested, 1.6% active. GFP signal change (wild-type ribosome), % (test concentration not listed);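 active = significant combined selectivity score with lowered wild-type GFP, culture density cut under 30%, mutant RFP and density less affected; inactive = any of these conditions unmet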; also: one replicate is shown; some compounds called inactive have numbers as strong as hits
A1 inh – inhibitors of the anti-apoptotic protein A1, read as caspase activation; MEF A1-2A-BIM cells, Caspase-Glo 3/7 luminescence, 3 h; percent of clofoctol response, vehicle zero; caspase activation, % (concentration not given with the values); 330,000 tested, 0.066% active; AID 2462;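 active = over half of replicate activation scores above 10%, or exactly half above 10 with the replicate mean above 10; inconclusive = replicate mean below 10 yet half the replicates above 10; inactive = over half of replicates below 10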;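 also: wells of about 30 µL received 50 nL stock; many hits fall short of the cut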
T cruzi inh – T. cruzi replication inhibition | T. cruzi beta-gal in NIH3T3, luminescence, 90 h | inhibition, % (no concentration beside the values) | 300,000 tested, 1.4% active | AID 1885;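 active = mean inhibition across valid replicates above about 55%, limit read from the data; inconclusive = mean below that limit but half or more replicates reach it; inactive = mean below it, under half of replicates reach it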;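 also: signal also drops with host cell toxicity which is not excluded here; 0% = plate median of DMSO wells and 100% = zero luminescence signal; higher percent means less beta-gal luminescence so fewer parasites; stock transfer was 50 nL into about 50 µL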
LANA-H2B inh – blocks KSHV LANA binding to histone H2A/H2B; Q9QR71; cell-free LANA-H2A/H2B peptide, fluorescence polarization; inhibition, % (test concentration not listed); 320,000 tested, 0.6% active; AID 2629; in the data active = inhibition mostly above about 10%, no sharp cut-off; inactive = mostly below about 6.7%;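 also: stock transfer was 7.5 nL into about 10 µL; 0% = median of vehicle wells and 100% = median of positive control wells; one replicate is shown; the record names a cut of 25% in any replicate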
Beta cell apopt – beta cell apoptosis inhibition; protection from apoptosis, % (test concentration not listed); 300,000 tested, 0.8% active; INS-1E cytokine-induced death, ATP luminescence, 48 h; percent of positive-control rescue, neutral wells zero;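 active = all replicates at 75% or more, or half of them and the mean; inconclusive = half reach 75% but not the mean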;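 also: 0% = cytokine-treated negative control wells and 100% = positive control rescue; higher means more ATP so stronger rescue from cytokine killing; wells of about 40 µL received 100 nL stock; the first replicate is given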
Calb FLC – affects C. albicans growth with fluconazole | C. albicans CaCi-2 (fluconazole-resistant clinical isolate) + fluconazole, Alamar Blue growth, 48 h | 300,000 tested, 0.57% active | AID 1979 | growth inhibition, % (test concentration not listed);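 active = most replicates above 75%; inconclusive = exactly half above 75%; inactive = most below 75%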;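 also: all wells also contain fluconazole at 8 µg/ml as a sub-toxic cotreatment; 0% = median of DMSO wells and 100% = median of geldanamycin control wells; wells of about 8 µL received 7.5 nL stock; the first replicate is given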
Beta2AR agonist – activates human beta-2 adrenergic receptor causing internalization | P07550 | response, % (concentration not given with the values) | 340,000 tested, 0.43% active | AID 504454 | Am2.2-beta2AR cells, FAP receptor internalization, flow cytometry; reference of the scale not given here;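 active = response above a set limit, near 3 SD of response in nonfluorescent compounds, cut at about 42% in these data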;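 also: stock transfer was 100 nL into about 11 µL; a reference agonist was the positive control; negative values mostly stem from fluorescent compounds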
Target sequence (P07550 whole entry, looked up): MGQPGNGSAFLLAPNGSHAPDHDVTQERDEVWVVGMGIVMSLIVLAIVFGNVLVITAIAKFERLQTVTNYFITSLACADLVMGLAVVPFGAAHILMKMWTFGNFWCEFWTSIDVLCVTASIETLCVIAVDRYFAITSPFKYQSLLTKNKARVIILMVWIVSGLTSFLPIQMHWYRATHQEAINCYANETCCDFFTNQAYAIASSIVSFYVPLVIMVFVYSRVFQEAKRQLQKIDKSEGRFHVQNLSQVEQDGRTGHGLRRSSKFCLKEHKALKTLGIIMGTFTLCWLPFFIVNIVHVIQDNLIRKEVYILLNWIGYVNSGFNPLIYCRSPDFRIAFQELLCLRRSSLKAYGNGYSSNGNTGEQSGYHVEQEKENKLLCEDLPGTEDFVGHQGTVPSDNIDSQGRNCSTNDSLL
ALR inh – blocks human ALR sulfhydryl oxidase activity. P55789. purified ALR, DTT oxidation, H2O2 HRP-luminol luminescence. 290,000 tested, 3.8% active. inhibition, % (no concentration beside the values);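 active = mean and each replicate at 75% or more; inconclusive = only one of the two met; inactive = neither met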;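 also: stock transfer was 7.5 nL into about 7.5 µL; 0% = neutral wells and 100% = wells with inactivated enzyme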
Target sequence (P55789 whole entry, looked up): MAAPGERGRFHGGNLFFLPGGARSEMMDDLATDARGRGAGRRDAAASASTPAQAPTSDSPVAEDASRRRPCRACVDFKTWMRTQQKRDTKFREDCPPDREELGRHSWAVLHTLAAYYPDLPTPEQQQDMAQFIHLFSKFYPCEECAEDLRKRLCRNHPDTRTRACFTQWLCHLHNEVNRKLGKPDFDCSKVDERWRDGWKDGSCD
rRNA inh HTS OD600 – also measured in rRNA inh HTS; calls as there; OD600 change, %; measured here: OD600 growth;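 optical density of the mix in the first replicate; 0 = DMSO median and -100 = no signal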
rRNA inh HTS RFP – further read-out of rRNA inh HTS, marked with its call; RFP signal change, %; measured here: RFP humanized mutant strains;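 first replicate; 0 = DMSO median and -100 = no signal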
Numbers without * were called inactive; u = inconclusive; x = not tested or not shown.

SMILES | rRNA inh HTS | rRNA inh HTS OD600 | rRNA inh HTS RFP | A1 inh | T cruzi inh | LANA-H2B inh | Beta cell apopt | Calb FLC | Beta2AR agonist | ALR inh
Cc1ccc(CC2CC(=O)N(c3ccc(C)cc3)C2=O)cc1 (stereo not drawn) | 4 | -9 | -1.3 | -0.4 | -2 | -6.2 | -5 | 1 | -2 | 0
CCN(C(=O)CSc1nnc(COc2ccccc2F)n1N)C1CCS(=O)(=O)C1 (stereo not drawn) | 19 | 18 | 4.1 | 0.4 | -6 | -20 | 3 | 7 | -1 | 1
CC(C)(Oc1ccc(Br)cc1)C(=O)N1CCc2ccccc21 | x | x | x | 0.7 | 6 | -3.3 | -14 | -2 | 9 | -16
COc1cccc(/C=C2\C=C(c3ccc(C)cc3)OC2=O)c1OC(C)=O | 3 | 8 | 1.9 | 0.1 | 7 | -3.8 | -2 | -7 | -4 | -24
CCN(CC)S(=O)(=O)c1ccc(/C=C/C(=O)OCC(=O)NCc2cccs2)cc1 | 0 | 9 | -1.2 | 1.5 | x | -10 | -3 | x | 0 | 3
O=C(CCl)Nc1sccc1C(=O)c1ccccc1 | -32 | -15 | 14 | 0.8 | -8 | -1.8 | 6 | -14 | 6 | 7
CS(=O)(=O)N(C(=O)NC(=O)NC1CCS(=O)(=O)C1)C1CCCCC1 (stereo not drawn) | 10 | 6 | -1.5 | 0.6 | -10 | -1.8 | 0 | -8 | 7 | 3
CC(=O)c1ccc(N(C(=O)CNC(=O)c2ccco2)C(C(=O)NC2CCCC2)c2ccco2)cc1 (stereo not drawn) | 3 | 9 | -2.0 | -0.9 | 2 | 1.6 | -5 | -14 | -4 | x
COc1ccc2nc(C)cc(N3CCN(S(=O)(=O)c4ccccc4F)CC3)c2c1 | -19 | -21 | 12 | -0.9 | x | 3.1 | -1 | x | 4 | -22
Cc1nc(NC(=O)c2cc(-n3cnnc3)ccc2Cl)ccc1Br | x | x | x | 0.3 | 6 | 11 | -1 | 9 | -10 | -10
O=C(CCc1nc(-c2ccc(F)cc2)no1)Nc1cccc(C(=O)NC2CC2)c1 | -7 | -12 | 0.6 | 0.7 | x | 4.0 | -2 | x | -3 | 20
c1cc2c(cc1Nc1nc(-c3ccc4c(c3)OCO4)cs1)OCCO2 | x | x | x | -1.5 | 8 | 1.9 | -1 | 5 | -4 | -7
COc1ccc(S(=O)(=O)N2CCN(C(=O)[C@@H]3CCC(=O)N3C3OC(=O)c4ccccc43)CC2)cc1 (stereo partly drawn) | x | x | x | 0.5 | -3 | 5.3 | 1 | -28 | 0 | -7
CC(C)N1CCC(NC(=O)Nc2ccccc2)CC1 | -10 | -6 | -4.0 | 0.7 | -20 | 2.1 | -1 | u | -9 | -1
CCn1cc(C(=O)NCCC(=O)OC)c(=O)c2cc3c(cc21)OCO3 | 7 | 14 | -2.0 | -0.1 | -3 | 15 | -8 | -5 | 4 | 0
CN1CCCN(C(=O)c2cc3c(s2)CCCC3)CC1 | 13 | 9 | 0.7 | 0.9 | 12 | 3.3 | -9 | -4 | -2 | -10
Cc1nnc(N(C)C(=O)c2ccncc2)s1 | 20 | 10 | -2.1 | 0.1 | -13 | -1.9 | -6 | 0 | 6 | x
Cc1[nH]c2ccccc2c1C(=O)CNc1nccs1 | x | x | x | -0.5 | -2 | 9.7 | 0 | 0 | -8 | 31
COc1ccc(CN2C(=O)c3ccccc3C2=O)cc1C(=O)Nc1ccc(C)cc1C | 23 | 11 | -0.6 | 0.5 | -11 | x | -3 | 6 | 0 | x
COc1ccccc1OCc1nnc(SCC(=O)NCc2ccco2)n1Cc1ccco1 | x | x | x | 1.5 | -4 | 1.9 | -5 | 0 | -3 | 52
COc1ccc(CC(NC(C)=O)C(=O)NC2CCN(c3c4c(nc5ncnn35)CCC4)CC2)cc1 (stereo not drawn) | x | x | x | 0.1 | -10 | 2.0 | x | -2 | 5 | -6
Cc1cc2[nH]c(=O)c(=O)[nH]c2cc1S(=O)(=O)Nc1ccccc1F | -1 | -3 | -1.7 | x | -15 | x | x | 24 | 3 | x
O=C(CCN1CCCC1=O)NC1CCCc2c1cnn2-c1ccccc1F (stereo not drawn) | 3 | 6 | 0.5 | -0.1 | -11 | -0.1 | -5 | -6 | -3 | 4
O=C(Cn1cc([N+](=O)[O-])cn1)N1CCN(c2ccccc2)CC1 | 14 | 4 | 0.3 | -1.0 | -16 | 1.5 | 2 | 3 | 0 | 27
O=C(COC(=O)CCN1C(=O)c2ccccc2C1=O)Nc1ccccc1[N+](=O)[O-] | 0 | 8 | -3.7 | 0.1 | x | 1.7 | -7 | x | 1 | 0
SMILES | rRNA inh HTS | rRNA inh HTS OD600 | rRNA inh HTS RFP | A1 inh | T cruzi inh | LANA-H2B inh | Beta cell apopt | Calb FLC | Beta2AR agonist | ALR inh
Cc1ccc(C(=O)NC(=S)Nc2ccccc2C)cc1 | 13 | 21 | 2.4 | -0.3 | -13 | 1.0 | 7 | -19 | 15 | -28
COc1ccc(CC(C)NS(=O)(=O)c2ccc3c(c2)CCN3S(C)(=O)=O)cc1OC (stereo not drawn) | -4 | -9 | -2.9 | 0.4 | -4 | 4.3 | -7 | -6 | 4 | 3
COc1ccc(NC(=O)Nc2ccc(OC)cc2)cc1 | x | x | x | -1.5 | -6 | -2.5 | -6 | 3 | 3 | -7
Cc1nn(C)c(C)c1NC(=O)CCl | 19 | 12 | 0.6 | 0.2 | -8 | -3.5 | -17 | -5 | 2 | 5
Cc1cccc(NC(=O)COC(=O)CSc2ccccc2)c1C | x | x | x | 0.1 | x | -0.1 | -3 | x | 0 | 0
COc1ccc(/C=C/C(=O)c2ccc(OC)cc2O)cc1 | -4 | 2 | -8.9 | -1.2 | 22 | -7.0 | 0 | -2 | 1 | -18
COc1ccccc1C(=O)N/N=C/C(C)=C/c1ccccc1 | -8 | -2 | -2.3 | -2.6 | -1 | -5.3 | -3 | 2 | -3 | x
Cc1ccc2ccc(C(Nc3cccc(C(F)(F)F)c3)c3cccnc3)c(O)c2n1 (stereo not drawn) | 0 | 2 | -3.8 | 0.9 | 48 | -3.9 | 5 | 0 | 2 | -5
CCOc1cccc(C(=O)N(Cc2ccc(F)cc2)C2CCS(=O)(=O)C2)c1 (stereo not drawn) | -2 | -7 | 4.2 | 0.1 | x | 7.0 | -1 | -14 | 3 | -6
CN(CC(=O)Nc1cccc(F)c1)CC(=O)Nc1cccc(S(=O)(=O)N2CCCCCC2)c1 | -30 | -37 | 14 | -0.9 | 1 | 0.4 | -9 | 1 | 11 | -1
COc1ccccc1N(C1=NCCCS1)S(=O)(=O)c1ccc(C(C)(C)C)cc1 | -16* | -0.5* | 4.6* | 0.3 | 38 | 2.4 | 2 | -7 | -4 | -4
CCOC(=O)c1cc(CC)sc1NC(=O)CN1C(=O)C(=O)N(CC(C)C)C1=O | 7 | 16 | 1.1 | 0.6 | -15 | 2.4 | -3 | 9 | -5 | 14
Cc1cccc(Cn2c(Cc3ccccc3)nc3ccccc32)c1 | -28 | -39 | -10.0 | 0.1 | 2 | -0.2 | 1 | -15 | 16 | -5
CN(c1ccccc1C(=O)Nc1ccc(S(=O)(=O)N2CCOCC2)cc1)S(=O)(=O)c1ccccc1 | x | x | x | 0.0 | 0 | -1.1 | 4 | 1 | 2 | -7
N#Cc1ccccc1NC(=O)CN1CCN(c2ccccn2)CC1 | 12 | 18 | 2.4 | 0.9 | 0 | -1.9 | -2 | 13 | -12 | -8
COc1ccc(CCNC(=O)c2ccc(OCC(=O)N3CCOCC3)c(OC)c2)cc1OC | 7 | 2 | 0.6 | 0.0 | 3 | 2.4 | -4 | -6 | -2 | 0
O=S(=O)(c1ccc(NC(=S)NN=C2CCCCC2)cc1)N1CCOCC1 | 18 | 11 | 0.9 | 0.1 | -5 | 2.2 | 1 | 4 | 7 | x
O=C(Nc1ccc(N2CCCCC2)cc1)c1ccccc1 | x | x | x | -7.2 | 31 | 1.9 | 17 | 22 | -11 | 43
COc1ccc(N2CCN(S(=O)(=O)CCNC(=O)COc3ccccc3C)CC2)cc1 | -4 | -4 | 1.5 | 0.0 | -10 | -2.3 | x | 3 | -3 | 74
Cc1cc(C)c(C#N)c(SC(C(=O)NC(C)(C)C)c2ccccc2)n1 (stereo not drawn) | 10 | 1 | 0.1 | 0.4 | 1 | 1.1 | -39 | -15 | -2 | -2
CSc1ccc(/C=C/C(=O)c2ccc(NC(=O)C(C)C)cc2)cc1 | x | x | x | 0.6 | 17 | 0.1 | 2 | 36 | 3 | 5
COc1cc(NC(=O)c2cc3ccccc3o2)c(OC)cc1Cl | x | x | x | -0.4 | 5 | -1.2 | 0 | -10 | -4 | 1
CC[C@@H](C(=O)[C@@H](C)[C@@H](O)[C@H](C)CCc1ccc(C)c(O)c1C(=O)O)[C@H]1O[C@](CC)([C@H]2CC[C@](O)(CC)[C@H](C)O2)C[C@@H]1C | -55 | -77 | -15 | 0.6 | 37 | 1.6 | 97* | x | 86* | 2
CCn1nc(NC(=O)Cc2ccc(OC)cc2)c2cc3cccc(C)c3nc21 | 22 | 17 | 4.4 | 1.4 | 0 | 3.4 | 1 | -4 | 4 | 5
CSc1cccc(NC(=O)OC2CCCCCCCCCCC2)c1 | -8 | -3 | -16 | 0.0 | 35 | -7.4 | 5 | 1 | 0 | -2
C#CCNC(=O)C1=C[C@@H](C(C)(C)C)C[C@@H](OCc2ccc(CO)cc2)O1 | 2 | 0 | -7.6 | -0.2 | -4 | 2.6 | -4 | 12 | -17 | 1

A different layout for some results above.
mol	rRNA inh HTS	rRNA inh HTS OD600	rRNA inh HTS RFP	A1 inh	T cruzi inh	LANA-H2B inh	Beta cell apopt	Calb FLC	Beta2AR agonist	ALR inh
CC[C@@H](C(=O)[C@@H](C)[C@@H](O)[C@H](C)CCc1ccc(C)c(O)c1C(=O)O)[C@H]1O[C@](CC)([C@H]2CC[C@](O)(CC)[C@H](C)O2)C[C@@H]1C	-55	-77	-15	0.6	37	1.6	97*	x	86*	2
CCn1nc(NC(=O)Cc2ccc(OC)cc2)c2cc3cccc(C)c3nc21	22	17	4.4	1.4	0	3.4	1	-4	4	5
CSc1cccc(NC(=O)OC2CCCCCCCCCCC2)c1	-8	-3	-16	0.0	35	-7.4	5	1	0	-2

Whole records, looked up by structure.
`COc1ccccc1N(C1=NCCCS1)S(=O)(=O)c1ccc(C(C)(C)C)cc1` as listed: rRNA inh HTS: -16*; rRNA inh HTS OD600: -0.5*; rRNA inh HTS RFP: 4.6*; A1 inh: 0.3; T cruzi inh: 38; LANA-H2B inh: 2.4; Beta cell apopt: 2; Calb FLC: -7; Beta2AR agonist: -4; ALR inh: -4
`O=S(=O)(c1ccc(NC(=S)NN=C2CCCCC2)cc1)N1CCOCC1` as listed: rRNA inh HTS: 18; rRNA inh HTS OD600: 11; rRNA inh HTS RFP: 0.9; A1 inh: 0.1; T cruzi inh: -5; LANA-H2B inh: 2.2; Beta cell apopt: 1; Calb FLC: 4; Beta2AR agonist: 7; ALR inh: x

Assay outcomes: PubChem BioAssay, several laboratories

These rows are one share of the data; the hit share may differ from the screen's.
